# From PubChem BioAssay
# D2 PAM = human D2 receptor positive allosteric modulation; DiscoveRx D2 beta-arrestin cells, luminescence, 90 min; 100% = 57 uM dopamine signal; potentiation, % (no concentration beside the values); 360,000 compounds, 0.23% hits; AID 624464; active = potentiation of 50% or more; inconclusive = 30% to 50%; inactive = 30% or less;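 note: compound concentration not given in the record; tested on top of an EC20 dose of dopamine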
#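 PathHunter D2 cells, attached overnight at 37 deg C, received compound in DMSO plus dopamine at EC20 (50 nM final) for 90 min at 37 deg C. Beta-arrestin recruitment was read as luminescence after 1 h with detection reagent at ambient temperature.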
# TRPML1 agonist = human mucolipin-1 channel agonism | activation, % (concentration not given with the values) | TRPML1-expressing cells, Ca2+ dye fluorescence, FDSS; host cell line not named in the record; reference of the full effect not given here | AID 624414 | 410,000 compounds, 0.12% hits | Q9GZU1; in the data active = activation above about 50%; inconclusive = about 30% to 50%; inactive = below about 30%; note: 0% is about no effect; the text of the record puts the active cut at 80%
#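 Kinetic FDSS Ca2+ read in Tet-induced TRPML1-DL cells (ABD Ca8 dye plus quencher, 45-90 min RT loading): baseline, then compound, then 110 s agonist window; EC80 agonist 54-4 at 4uM final added afterwards for a 110 s antagonist window.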
# D2 ag = agonists of human D2 dopamine receptor (beta-arrestin). DiscoveRx PathHunter D2 beta-arrestin, luminescence, 90 min; 100% = 57 uM dopamine signal. activation, % (no concentration beside the values). 360,000 compounds, 0.084% hits. AID 624465; in the data active = activation above about 40%; inconclusive = about 15% to 40%; inactive = below about 15%; note: compound concentration not given in the record; the text of the record calls up to 30% inactive
#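 DiscoveRx PathHunter D2 beta-arrestin cells (2,100/well) attached overnight, then compound-stimulated 90 min at 37 C in HBSS/10 mM HEPES/0.1% Tween-20 buffer; beta-galactosidase complementation read by luminescence after 1 h at ambient temperature. Dopamine 57 uM final (EC100) as control.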
# PINK1 modulator = changes PINK1 expression; 410,000 compounds, 0.2% hits; Potency, µM (doses to about 76.6 µM), for inactives: at the top dose activation (PINK1 increase), usual class: activators; PINK1 immunofluorescence, high-content cytometry, 24 h; active = well fitted activation curve with a large enough effect; inconclusive = small, poorly fitted or top-dose-only effect; inactive = flat fitted curve, though single readings scatter; cell line not stated here;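 note: potency is the fitted concentration of half-maximal effect; % of control where 0% means no effect; nearly all actives have a fitted effect of over 65% in size; a mitochondrial uncoupler was the plate control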
#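 A stable cell line was treated with compounds at 5 concentrations for 24 hours, with CCCP as control. PINK1 levels and mitochondrial localization were measured by immunofluorescence with mitochondrial, cell and nuclear markers after fixation, read by laser-scanning cytometry.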
# Six1-Eya2 blk = blocks human Six1 binding to Eya2; AID 651725; activity change, % (test concentration not listed); AlphaScreen GST-Six1/His-Eya2 binding, biochemical; stronger effect = lower value; control for the full effect not named in the record; 360,000 compounds, 0.56% hits; in the data active = activity change below about -65%; inconclusive = about -30% to -65%; inactive = above about -30%; note: % is set by controls: 0 for no effect and ±100 for the full control effect
# Target sequence (O00167 whole entry, looked up): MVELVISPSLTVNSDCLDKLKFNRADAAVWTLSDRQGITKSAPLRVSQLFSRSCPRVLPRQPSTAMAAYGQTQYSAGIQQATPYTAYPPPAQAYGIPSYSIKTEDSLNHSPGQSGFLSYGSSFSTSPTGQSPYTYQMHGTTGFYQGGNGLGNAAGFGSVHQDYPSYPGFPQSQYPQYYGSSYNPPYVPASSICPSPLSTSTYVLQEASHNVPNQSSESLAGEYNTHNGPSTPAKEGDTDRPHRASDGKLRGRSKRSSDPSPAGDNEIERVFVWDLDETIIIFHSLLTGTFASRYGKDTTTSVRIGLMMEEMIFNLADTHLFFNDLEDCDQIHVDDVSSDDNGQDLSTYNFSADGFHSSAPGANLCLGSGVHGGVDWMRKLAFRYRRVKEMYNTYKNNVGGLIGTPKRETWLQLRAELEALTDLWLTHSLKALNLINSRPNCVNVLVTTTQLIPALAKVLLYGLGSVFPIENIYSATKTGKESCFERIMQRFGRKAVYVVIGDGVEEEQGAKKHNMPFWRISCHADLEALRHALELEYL
# Target sequence (Q15475 whole entry, looked up): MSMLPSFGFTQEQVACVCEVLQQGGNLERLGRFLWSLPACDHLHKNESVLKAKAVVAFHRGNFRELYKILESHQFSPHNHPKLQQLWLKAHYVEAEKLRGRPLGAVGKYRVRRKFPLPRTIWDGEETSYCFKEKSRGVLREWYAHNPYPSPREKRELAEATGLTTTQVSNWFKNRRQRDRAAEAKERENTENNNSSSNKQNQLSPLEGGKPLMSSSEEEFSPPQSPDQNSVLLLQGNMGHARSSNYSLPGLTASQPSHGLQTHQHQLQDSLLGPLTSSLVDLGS
#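 Compounds are tested against tagged Six1 and Eya2 proteins bridged by glutathione donor and nickel acceptor beads; after a one-hour incubation at 37 °C without light, AlphaScreen emission is recorded.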
# TRPML1 blocker = human mucolipin-1 channel inhibition; TRPML1-inducible cells, Ca2+ dye fluorescence, FDSS; stronger effect = lower value; inhibition of EC80 agonist-evoked calcium signal; activity change, negative = inhibition, % (test concentration not listed); 390,000 compounds, 0.02% hits; AID 624415; in the data active means activity change below about -50%; inconclusive means about -30% to -50%; inactive means above about -30%;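 note: stimulus is agonist 54-4 at its EC80 concentration; % is set by controls: 0 for no effect and ±100 for the full control effect; compound concentration not given in the record; the text of the record puts the active cut at -80%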
#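 Tet-induced TRPML1-DL cells loaded with Ca8 no-wash calcium dye were read kinetically on FDSS. Compound addition was followed by EC80 agonist 54-4 (4 uM final); inhibition was read over 110 s.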
# * hit, by the source's call; u = inconclusive; x = not tested or not shown; & = joins results of further samples; [ ] = another dose, or the depositor's remark.
SMILES,D2 PAM,TRPML1 agonist,D2 ag,PINK1 modulator,Six1-Eya2 blk,TRPML1 blocker
CCCCNC(=O)C1CCN(Cc2nc(-c3ccc(OC)c(OC)c3)oc2C)CC1,x,-0.6,x,-0.2%,x,11
Cn1c(=O)c2c(nc(N3CCCC3)n2C)n(C)c1=O,-1,-0.1,-4.9,3.6%,-4,-8
CC(C)CCOc1ccc(C(=O)C[N+]2(C)CCOCC2)cc1,-7,-0.4,-1.7,0.4%,6,8
CCN(C(=O)COC(=O)CNC(=O)c1sc2ccccc2c1Cl)C1CCCCC1,-16,1.6,-3.9,-1.4%,-13,10
COc1ccc(C2CC(c3cccs3)=NN2C(=O)CSC2=NCCS2)cc1 (configuration not stated),-2,-0.1,0.3,0.5%,-5,-12
CCOC(=O)C1=C(C)C/C(=N\NC(=O)c2ccccc2O)CC1,-18,x,-6.8,0.9%,-11,x
Cc1ccc(S(=O)(=O)N2CCOCC2)cc1NC(=O)CSc1nnnn1C,-2,-0.4,-0.9,1.7%,2,16
COc1ccc(-c2noc(Cc3ccc(Cl)cc3)n2)cc1OC,0,1.1,1.4,5.3%,-25,35
COc1ccc(NC(=O)c2cc(S(=O)(=O)N3CCCC3)cn2C)cc1Cl,-2,-0.4,1.2,6.1%,-4,4
COc1ccc(C(=O)Nc2nnc(C)s2)cc1,x,-1.0,x,-0.5%,x,-18
Cc1ccc(C(=O)N/N=C\c2ccc3c(c2)OCO3)cn1,-8,-0.4,-3.4,1.5%,3,-8
Cc1cc(-n2c(C)cc(C(=O)CSc3nc4ccccc4c(=O)n3Cc3ccco3)c2C)no1,-9,1.6,-1.6,2.3%,-2,-12
COc1ccc2nc3cc(Cl)ccc3c(Nc3cc(C(C)C)c(O)cc3C)c2c1,-10,0.4,9.8,-2.3%,-25,5
COc1ccc(Br)c(C(=O)NC(C)(C)CO)c1,3,0.0,-0.7,0.5%,-5,1
O=C(Nc1ccc(S(=O)(=O)Nc2ncccn2)cc1)c1ccccc1NS(=O)(=O)c1ccc(F)cc1,0,1.1,-2.3,1.5%,-7,-16
COc1ccc(N/C(N)=N/c2nc(C)cc(C)n2)c(OC)c1,-9,0.3,-1.8,0.1%,5,-9
CCN(C(=O)CSc1nc2ccccc2c(=O)n1-c1ccccc1F)C1CCS(=O)(=O)C1 (configuration not stated),-8,1.0,-7.5,0.3%,4,14
C=CCNC(=O)C(C#N)c1nc2ccccc2nc1N1CCN(Cc2ccccc2)CC1 (configuration not stated),-34,-0.4,-4.9,4.2%,-3,16
Cc1sc2ncnc(Oc3ccc(-n4ccnc4)cc3)c2c1C,-8,-0.4,-4.0,0.0%,-13,4
Cc1cc(C)c(O)c(NC(=S)NC(=O)Cc2ccccc2)c1,1,10,-6.8,5.6%,-4,12
Cc1ccc(NC(=S)NNC(=O)c2c(Cl)c(C)nn2C)cc1,-37,-0.7,-8.7,u,0,24
Cc1oc(-c2ccc(Cl)cc2)nc1CS(=O)CC(=O)NCc1ccc2c(c1)OCO2 (configuration not stated),-1,0.5,-2.5,3.0%,0,-4
O=C(Cc1ccccc1[N+](=O)[O-])NCc1ccc(Cl)cc1,3,0.3,-1.4,1.9%,2,-1
CCOc1ccc(NC(=O)CN2CCN(c3ccc(F)cc3)CC2)cc1S(=O)(=O)N1CCCC1,-45,-0.9,-3.0,2.7%,-17,-8
O=c1c2cnn(-c3ccc(F)cc3)c2ncn1Cc1cccc(Cl)c1,x,1.3,x,-0.1%,x,-11
O=C(COc1ccc2c3c(c(=O)oc2c1)CCC3)NC(Cc1ccc(Cl)cc1)C(=O)O (configuration not stated),-32,x,-8.4,0.0%,-1,x
O=C(NC(=S)Nc1cccc(O)c1)c1ccco1,-22,-0.3,-0.2,1.9%,0,26
COC1CCN(Cc2c(C(=O)N3C[C@@H](C)O[C@@H](C)C3)nc3ccc(Cl)cn23)CC1,-6,-0.3,-3.0,-0.5%,-4,9
CC1CC(C)CN(C(=O)CSCC(=O)Nc2nc(-c3cccs3)cs2)C1 (configuration not stated),-6,1.5,-5.0,2.7%,-1,10
COc1ccc(CCNC(=O)c2cnn3cccnc23)cc1OC,-6,0.9,-1.6,28%[38.3 µM],-1,7
CCN(CCCNC(=O)c1nn(-c2ccc(C)cc2)c(=O)c2c1c1ccccc1n2C)c1cccc(C)c1,x,0.5,x,2.4%,x,11
O=C(CN1CCCCCC1)Nc1c(Cl)cc(Cl)cc1Cl,-3,2.5,-4.1,6.3%,6,8
CN(C)c1cccc(Nc2ccc(-c3ccc(OC(F)(F)F)cc3)cn2)c1,2,-0.5,5.0,7.0%,-17,x
Cc1cccc(C)c1NC(=O)c1ccc2c(c1)nnn2C1CCCC1,x,1.3,x,8.8%,x,12
CC(OC(=O)c1ccc(-c2ccc([N+](=O)[O-])cc2)o1)C(=O)NC(N)=O (configuration not stated),1,1.0,5.1,1.2%,-1,19
COc1ccc(-n2ccnc(NCCc3ccccc3)c2=O)cc1OC,x,0.5,x,-0.6%,x,16
O=P(COCCO)(c1ccccc1)c1ccccc1,1,0.8,-1.0,-0.3%,-2,-1
CC(=O)c1ccccc1C(=O)N1CCCC(CNC(=O)c2ccccc2Cl)C1 (configuration not stated),-6,0.3,-2.7,-1.3%,1,13
O=C(COn1nnc2ccc(S(=O)(=O)N3CCOCC3)cc21)Nc1c(F)c(F)c(F)c(F)c1F,8,3.9,3.9,-1.5%,2,-16
COc1ccc(-n2cc(C(=O)c3ccc4ccccc4c3O)cn2)cc1,6,1.2,-1.1,-2.0%,13,3

# Individual results from the results shown:
# Value for CC1CC(C)CN(C(=O)CSCC(=O)Nc2nc(-c3cccs3)cs2)C1 (configuration not stated) in Six1-Eya2 blk: -1
# Value for CCOc1ccc(NC(=O)CN2CCN(c3ccc(F)cc3)CC2)cc1S(=O)(=O)N1CCCC1 in TRPML1 agonist: -0.9
# Value for Cc1ccc(NC(=S)NNC(=O)c2c(Cl)c(C)nn2C)cc1 in Six1-Eya2 blk: 0
# Value for O=C(Cc1ccccc1[N+](=O)[O-])NCc1ccc(Cl)cc1 in D2 PAM: 3
# Value for O=C(CN1CCCCCC1)Nc1c(Cl)cc(Cl)cc1Cl in D2 ag: -4.1
# Value for CCN(CCCNC(=O)c1nn(-c2ccc(C)cc2)c(=O)c2c1c1ccccc1n2C)c1cccc(C)c1 in PINK1 modulator: 2.4%

# Continued.
SMILES,D2 PAM,TRPML1 agonist,D2 ag,PINK1 modulator,Six1-Eya2 blk,TRPML1 blocker
O=C1C=C(c2ccc3ncccc3c2)C[C@@H](c2ccc(Cl)cc2)C1,-3,0.8,-2.3,4.0%,-14,-3
COc1ccc(-c2nc(CN3CCC(C(=O)NCCCOC(C)C)CC3)c(C)o2)cc1OC,x,0.0,x,1.8%,x,2
Cc1ccccc1-n1nnnc1SCC(=O)c1c(N)n(C2CC2)c(=O)[nH]c1=O,-4,-0.8,0.8,-1.3%,2,-3
COCC1CCN(Cc2c(C(=O)N3CCN(C4CCCCC4)CC3)nc3ccccn23)C1 (configuration not stated),-50,0.1,-4.3,-0.8%,0,5
O=C(C[n+]1cc(Br)cc2ccccc21)c1ccc(Cl)cc1,-10,3.4&7.2,-5.7,14µM*,0,35
Cc1cccc(-c2noc(CNC(=O)c3ccco3)n2)c1,2,1.6&-0.9,1.7,1.4%&1.2%,5,-5&-10
Nc1nc(SCC(=O)NCC2CCCO2)[nH]c(=O)c1NC(=O)c1ccc(F)c(F)c1 (configuration not stated),-14,-0.3,-5.0,1.1%,10,17
Cc1ccccc1-c1nc(Cc2ccc(Cl)cc2)no1,7,-0.8,5.7,3.3%,91,-3
C[C@H](NC(=O)c1nc[nH]c1C(=O)NCC(=O)OCc1ccccc1)C(=O)OCc1ccccc1,19,3.1,u,2.1%,1,46
COc1ccc(N(C(=O)c2cnsn2)C(C(=O)NC2CCCCC2)c2ccncc2)cc1 (configuration not stated),-6,0.8,-4.1,-1.0%,-1,-2
Cc1ccc(S[C@@H](CCN2CC[C@H](C(C)(C)C)CCC2=O)c2ccccc2)cc1,-21,0.1&0.6,-3.1,1.5%,-2,-7
COc1ccc2c(c1)c(C(=O)CN1CCC3(CC1)OCCO3)c(C)n2C,-22,-0.6,-1.3,0.4%,-2,-7
CC1CCCN(C(=O)C2CCN(c3nc(-c4ccccc4)nc4c3CCC4)CC2)C1 (configuration not stated),-13,-0.8,-0.2,4.3%,-15,15
COc1ccc(/C=C/c2nc(S(=O)(=O)c3ccccc3)c(N(C)C)o2)cc1,-31,1.5,-3.3,0.7%,-16,15
COc1ccccc1N1CCN(C2CCN(C(=O)c3cccs3)CC2)CC1,-28,-0.7,-0.6,0.8%,3,0
CCC(CC)NC(=O)c1cccc(Br)c1,-7,-0.7,-4.2,0.9%,10,-9
COC(=O)COc1ccc2oc(=O)cc(-c3cc4ccccc4o3)c2c1,-2,-1.0,3.1,0.6%,-2,14
COc1ccc(N2CCN(C3=NS(=O)(=O)C(c4cccc(Br)c4)=C3C)CC2)cc1,x,-0.6,x,0.7%,x,11
CC1CCc2sc3ncnc(N4CCN(C)CC4)c3c2C1 (configuration not stated),-35,-1.5,-3.9,-1.5%,-20,5
Cc1cccc(OCCC(=O)OCC(=O)N2CCc3ccccc32)c1,-3,0.7,-3.5,0.0%,14,-7
COC(=O)c1ccccc1N(C)S(=O)(=O)c1cc2c3c(c1)CCC(=O)N3CCC2,-8,0.0,-2.7,-2.2%,9,2
Cc1cc(NS(=O)(=O)c2ccc(NC(=O)c3cc4cc(Br)ccc4oc3=O)cc2)no1,-6,-0.4,1.8,1.5%,-2,18
CN(C)S(=O)(=O)N1CCN(c2cccc(Cl)c2)CC1,0,-1.3,-0.1,0.0%,-1,3
C[C@@H]1CN([C@H](C)CO)S(=O)(=O)c2ccc(Br)cc2O[C@H]1CN(C)C(=O)Cc1ccccn1,11,0.2,1.2,-1.1%,5,-9
CCCCCCCCC(c1nc2cc(C)c(C)cc2[nH]1)n1c(=O)c(-c2ccccc2Br)nc2ccccc21 (configuration not stated),-1,-0.5,-2.9,2.6%,26,x
Cc1c(Br)c([N+](=O)[O-])nn1C(C)C(=O)NCc1cccs1 (configuration not stated),-16,-0.3,-2.3,0.9%[38.3 µM],-1,-9

# Three neighbouring compounds already listed, for reference:
SMILES,D2 PAM,TRPML1 agonist,D2 ag,PINK1 modulator,Six1-Eya2 blk,TRPML1 blocker
C[C@@H]1CN([C@H](C)CO)S(=O)(=O)c2ccc(Br)cc2O[C@H]1CN(C)C(=O)Cc1ccccn1,11,0.2,1.2,-1.1%,5,-9
CCCCCCCCC(c1nc2cc(C)c(C)cc2[nH]1)n1c(=O)c(-c2ccccc2Br)nc2ccccc21 (configuration not stated),-1,-0.5,-2.9,2.6%,26,x
Cc1c(Br)c([N+](=O)[O-])nn1C(C)C(=O)NCc1cccs1 (configuration not stated),-16,-0.3,-2.3,0.9%[38.3 µM],-1,-9
